Assay outcomes deposited in PubChem by National Center for Advancing Translational Sciences (NCATS).
SARS PLP yeast: blocks SARS-CoV papain-like protease in a yeast assay | S. cerevisiae expressing SARS-CoV PLpro, growth rescue; control for the full effect not named in the record | Potency, µM (highest dose often 32.9 µM), inactives show top-dose activity, positive = growth rescue | actives 0.19% (n = 330,000); also: 0% is about no effect; nearly all actives have a fitted effect of over 55% in size; growth read by luminescence after 48 h
Cruzain noTriton: cruzain (T. cruzi) inhibition without detergent; Potency, µM, for inactives: max response, negative = inhibition, hits mostly inhibitors; purified cruzain, Z-FR-AMC fluorescence, no detergent; actives 2.3% (n = 200,000); P25779; AID 1476; active = well fitted curve in the direction sought with a large enough effect; inconclusive = small, poorly fitted or top-dose-only effect, or another doubt; inactive = no such curve, though single readings can be large; an effect the other way counts as inactive or inconclusive;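 also: plate controls were enzyme without inhibitor for no effect and buffer without enzyme for full effect; nearly all actives have a fitted effect of over 40% in size; top concentration of the series not given in the record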
Target sequence (P25779 123-467 limits assumed): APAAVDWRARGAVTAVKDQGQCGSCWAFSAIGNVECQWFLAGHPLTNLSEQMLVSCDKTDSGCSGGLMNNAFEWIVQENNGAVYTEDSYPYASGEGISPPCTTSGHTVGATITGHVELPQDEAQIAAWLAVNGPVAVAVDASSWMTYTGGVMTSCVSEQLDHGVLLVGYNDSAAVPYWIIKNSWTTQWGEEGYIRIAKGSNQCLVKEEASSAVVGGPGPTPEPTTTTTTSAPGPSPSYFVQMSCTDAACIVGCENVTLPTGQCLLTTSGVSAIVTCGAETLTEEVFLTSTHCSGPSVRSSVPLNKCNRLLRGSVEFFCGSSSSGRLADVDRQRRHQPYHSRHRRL
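Detergent-free condition (0.00005% Triton X-100) in acetate buffer pH 5.5 with DTT. 1.5 nM enzyme and compound were pre-mixed 15 min, then 2 uM Z-FR-AMC substrate added; reaction progress from fluorescence change between first and third reads (60 s).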
NS1 function inh: influenza NS1 inhibition; S. cerevisiae slowed by influenza A NS1, growth recovery by OD600; Potency, µM (highest dose often 46.1 µM), for the others: top-dose activity, positive = more growth; actives 0.4% (n = 270,000); also: actives are rising curves; nearly all actives have a fitted effect of over 50% in size
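Growth recovery, yeast-based: influenza A NS1 expressed in S. cerevisiae causes slow growth, and suppressors are detected by OD600. The parent strain without NS1 is used as positive control.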
Cruzain inh Det: cruzain (T. cruzi) inhibition with detergent; P25779; purified cruzain, Z-FR-AMC fluorescence, 0.01% Triton; Potency, µM, inactives show max response, negative = inhibition, hits mostly inhibitors; actives 0.43% (n = 200,000); AID 1478; active = well fitted curve in the direction sought with a large enough effect; inconclusive = small, poorly fitted or top-dose-only effect, or another doubt; inactive = no such curve, though single readings can be large; an effect the other way counts as inactive or inconclusive;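 also: plate controls were neutral wells for no effect and buffer without enzyme for full effect; nearly all actives have a fitted effect of over 40% in size; top concentration of the series not given in the record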
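15 min RT preincubation of 1.5 nM cruzain with compound, then 2 uM Z-FR-AMC added; kinetic AMC fluorescence, 60 s delta. Triton X-100 0.01%, pH 5.5.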
RE007 growth inh: less growth of the S. pombe RE007 Vpr strain; S. pombe RE007 Vpr strain, BacTiter-Glo ATP luminescence, 24 h; control for the full effect not named in the record; Potency, µM (top dose mostly 92.2 µM), for the others: at the top dose activity change, negative = less growth; actives 0.21% (n = 360,000); active = well fitted falling curve with a large enough effect; inconclusive = small, poorly fitted or top-dose-only effect; inactive = no such curve, though single readings can be large or run the other way;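 also: % is scaled to controls: 0 for no effect and ±100 for the full control effect; nearly all actives have a fitted effect of over 50% in size; the assay follows cell death caused by Vpr and the record does not say whether a fall means rescue or toxicity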
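Fission yeast RE007 carrying one integrated HIV-1 vpr copy, seeded at OD 0.01 in PMG+AL medium with 23 nL pinned compound. Grown 24 h at 30 degrees; viability read by BacTiter-Glo luminescence after 5 min.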
LASV entry inh: inhibitors of Lassa virus binding or cell entry; AID 540256; actives 1.2% (n = 300,000); Lassa virus pseudotype entry inhibition, cell reporter; control for the full effect not named in the record; Potency, µM (highest dose often 37.9 µM), inactives show at the highest dose activity change, negative = inhibition, usual class: inhibitors; active means well fitted inhibition curve with a large enough effect; inconclusive means small, poorly fitted or top-dose-only effect, or effect the other way; inactive means flat fitted curve, though single readings scatter; tested in HEK293 cells; also: % is scaled to controls: 0 for no effect and ±100 for the full control effect; nearly all actives have a fitted effect of over 50% in size; luciferase read-out
MARV entry inh: Marburg virus entry inhibition. Marburg virus pseudotyped entry inhibition, cell reporter; control for the full effect not named in the record; about a third of the inactives were read at about 46 µM. Potency, µM (highest dose often 37.8 µM), without a hit: at the highest dose activity change, negative = inhibition, usual class: inhibitors. actives 1.8% (n = 300,000); active = well fitted inhibition curve with a large enough effect; inconclusive = small, poorly fitted or top-dose-only effect, or effect the other way; inactive = flat fitted curve, though single readings scatter; tested in HEK293 cells; about a fifth of its hits are not listed in these tables; also: % is scaled to controls: 0 for no effect and ±100 for the full control effect; luciferase read-out
StopGo reporter: lowers the luciferase signal of an FMDV 2A StopGo reporter; human cells with a luciferase reporter of 2A StopGo recoding; control for the full effect not named in the record; AID 1159524; Potency, µM (highest dose often 57.9 µM), without a hit: at the highest dose signal change, negative = less light; actives 1.2% (n = 410,000); active = well fitted falling curve with a large enough effect; inconclusive = small, poorly fitted or top-dose-only effect; inactive = no such curve, though single readings can be large or run the other way; tested in HEK293T cells; also: % is scaled to controls: 0 for no effect and ±100 for the full control effect; nearly all actives have a fitted effect of over 45% in size; luciferase light after 4 h
Numbers without * were called inactive; u = inconclusive; x = not tested or not shown; & = joins results of further samples; [ ] = remark or other dose. Unless noted, calls follow the shape of the dose curve; as a rule, active means well fitted rising curve with a large enough effect; inconclusive means small, poorly fitted or top-dose-only effect; inactive means no such curve, though single readings can be large or run the other way. Potency is read from the fitted curve at half-maximal effect.

SMILES	SARS PLP yeast	Cruzain noTriton	NS1 function inh	Cruzain inh Det	RE007 growth inh	LASV entry inh	MARV entry inh	StopGo reporter
COc1ccc(C(=O)COC(=O)CNC(=O)c2ccc(OC)cc2)cc1	-0.9%	x	-1.0%	x	15.4%	-24.9%	-2.8%[46.1 µM]	-7.7%
COc1ccc(C(=O)NCCS(=O)(=O)NC2CCCC2)cc1	0.2%	x	x	x	0.8%	10.7%	3.2%	-4.6%
CCOC(=O)c1c(C)[nH]c(C(=O)COC(=O)c2ccc(F)c(S(=O)(=O)N3CCOCC3)c2)c1C	3.6%	u	-20.3%	1.2%	0.4%	u	u	-21.7%
COc1ccc(Nc2oc(-c3ccc(OC)cc3)nc2C#N)cc1	-1.0%	x	3.1%	x	3.8%	9.1%	1.1%[46.1 µM]	52.9%[activator]
CCCc1nc(NCc2ccccc2)c(C#N)c2c1CCCC2	1.9%	-10.5%	-7.9%	-14.1%	11.4%	8.7%	3.6%	-11.7%
c1ccc(Nc2ccccc2)cc1	-2.9%	-0.3%	x	-1.5%	10.1%	-15.5%[46.1 µM]	-3.5%&-3.5%&-3.5%&-3.5%	-13.4%
O=[N+]([O-])c1ccc(NN=Cc2cccc3ccccc23)nc1	x	x	x	x	-13.2%	-6.0%[46.1 µM]	u	15.6%
O=C(COC(=O)c1cc(=O)[nH]c2ccccc12)Nc1ccccc1F	-9.6%	x	x	x	0.4%	-7.7%[46.1 µM]	2.6%[46.1 µM]	0.0%
CCCCNC(=O)C(CC)Sc1nc2sc(C(=O)OC)c(C)c2c(=O)n1N (stereo unspecified)	2.0%	9.0%	19.9%	-0.3%	-10.6%	-21.4%	u	13.9%
Cc1ccccc1CSc1ncc(Cl)c(C(=O)Nc2nc3ccc(F)cc3s2)n1	x	-6.4%	x	0.4%	x	-1.0%[46.1 µM]	-5.6%[46.1 µM]	11.6%
COc1ccccc1OCC(=O)Nc1cccc(S(=O)(=O)NC2=NCCCCC2)c1	-3.2%	x	x	x	2.2%	5.5%[46.1 µM]	-25.4%	11.4%
COC(=O)CSc1nc2ccc(NC(=O)CSc3nnnn3Cc3ccccc3)cc2s1	4.4%	6.6%	u	-11.4%	5.6%	-21.8%	-4.8%&-4.8%	-24.0%
O=C(OCCN1C(=O)c2cccc3c(N4CCOCC4)ccc(c23)C1=O)c1cc(Cl)cc(Cl)c1	-0.7%	u	-3.1%	-0.2%	x	1.6%	6.9%	x
O=C(O)CCCC(=O)N1CCC(C(O)(c2ccccc2)c2ccccc2)CC1	0.2%	x	-0.6%	x	2.3%	14.3%	3.3%	-12.2%
CC1(C(=O)CSc2ncn[nH]2)CCC(=O)O1 (stereo unspecified)	-1.7%	4.1%	18.2%	5.6%	x	x	x	x
COc1ccc(/C=C2\SC(=O)N=C2N)cc1OC	18.6%	-4.4%	-0.2%	-0.4%	16.8%	-17.0%	5.0%	-3.3%
COc1ccc(NS(=O)(=O)c2cc(N/C(=N\S(=O)(=O)c3ccccc3)c3ccc(F)cc3)ccc2Cl)cc1	-2.4%	u	0.2%	0.1%	4.9%	u	11.6µM*	37.7%[activator]
CN1CCN(C2CCN(c3cccc(Cl)c3)CC2)CC1CCO (stereo unspecified)	-11.5%	x	3.7%	x	-2.2%	x	x	4.2%
CC(=O)NN1C(=O)c2ccc(Oc3cccc([N+](=O)[O-])c3)cc2C1=O	7.6%	-10.1%	2.4%	3.7%	-15.7%	6.0%	15.6%	x
Nc1nc(NCCc2ccccc2)nc(NCc2ccccc2)c1[N+](=O)[O-]	4.7%	x	7.3%	x	1.4%	x	5.2%	0.0%
CC1(C)Cc2cccc(OCC(=O)Nc3ccc(OCC(N)=O)cc3)c2O1	16.1%	x	x	x	6.1%	-4.8%[46.1 µM]	u	-1.9%
CN(CC(=O)Nc1c(Cl)cccc1Cl)C(=O)CCCN1C(=O)c2ccccc2C1=O	6.5%	-7.0%	-1.9%	8.6%	5.2%	-12.5%	11.3%	-5.4%
CC[C@]12c3[nH]c4ccc(Cl)cc4c3CCN1C(=O)[C@@H](CC(=O)NCc1cccc(C(F)(F)F)c1)C[C@@H]2C(=O)N1CCN(C(=O)c2ccco2)CC1	-2.3%	x	x	x	-5.6%	x	3.0%	u
O=C(COc1cccnc1[N+](=O)[O-])Nc1ccc(Cl)c(S(=O)(=O)N2CCOCC2)c1	1.0%	x	4.7%	x	11.2%	26.4%	5.4%[46.1 µM]	-25.9%
O=C(CCl)Nc1ccc(N2CCCCCC2)cc1	4.0%	x	-35.7%	x	-10.0%	u	u	-11.6%
COc1ccccc1C(=O)Nc1ccc2c(c1)OCO2	-7.3%	2.8%	-46.8%	-1.1%	-12.9%	-19.2%	5.9%	51.1%[activator]
CCOC(=O)COc1coc(CN2CCN(c3ccccc3)CC2)cc1=O	-6.5%	x	13.7%	x	6.8%	20.7%[46.1 µM]	-0.3%[46.1 µM]	-3.0%
CCOc1cc(NS(=O)(=O)c2ccc(NC(C)=O)cc2)c(OCC)cc1NC(=O)C(C)C	12.7%	u	6.4%	-0.1%	-6.7%	-12.0%	-3.9%	7.2%
Cc1cccc(OCC(=O)NCC2CCCO2)c1C (stereo unspecified)	-0.1%	x	0.1%	x	5.7%	9.4%	10.3%	-7.4%
Cc1ccc(NC(=O)CCCn2nc(C)c3c(C)n(-c4ccccc4)nc3c2=O)c(Cl)c1	6.8%	2.2%	-10.5%	2.1%	-5.4%	-8.2%&0.9%[46.1 µM]	u	-12.5%&-6.6%
CCOC(=O)Cc1c(C)c2c(O)cc(O)cc2oc1=O	-1.2%	-6.6%	7.5%	-2.2%	3.9%	-0.6%	14.5%	-32.0%
Cc1cccc(NC(=O)C(Cc2ccccc2)n2cccc2)c1C (stereo unspecified)	x	5.4%	x	-7.2%	x	x	0.3%[46.1 µM]	-13.2%
O=C(Cc1c[nH]c2ccccc12)OCC(=O)c1ccccc1	-8.5%	-4.9%	-18.8%	-5.8%	-5.7%	-4.9%	7.0%	17.6%
CCOC(=O)c1ccc(NC(=O)CSc2nc(C)nc3c2c(=O)n(C)c(=O)n3C)cc1	11.5%	u	-4.6%	-0.5%	5.2%	x	0.4%	-11.5%
CCOC(=O)c1ccc(Nc2cc(-c3ccccc3)nc(C)n2)cc1	x	2.5%	x	-4.8%	x	-17.7%[46.1 µM]	u	-9.6%
CC(C)(C)OC(=O)NN1CC(=O)N2Cc3[nH]c4ccccc4c3C[C@H]2C1=O	0.3%	x	3.8%	x	7.9%	x	x	-20.6%
CCCc1sc(N/N=C/c2ccccn2)nc1-c1ccc(F)cc1	-32.0%	9.3%	12.4%	-14.1%	u	u	u	x
Cc1cc(C(=O)CN2C(=O)CN(C)C2=O)c(C)n1-c1cccc(S(=O)(=O)N2CCOCC2)c1	-8.1%	x	-2.5%	x	-0.4%	x	x	-3.6%
COC(=O)c1ccccc1NC(=O)Nc1cccc(C)n1	-0.5%	x	3.5%	x	-2.9%	x	x	0.1%
CCOC(=O)N1CCN(S(=O)(=O)c2ccc(OC)c3ccccc23)CC1	-7.2%	23.9%	-30.6%	-5.7%	31.0%	-10.5%	-2.7%	u
CN(C)CC/C=C1/c2ccc(F)cc2Sc2ccc(Cl)cc21	x	x	x	x	-9.4%	u	12.6µM*	-13.6%
Cc1ccccc1NC(=O)COC(=O)COc1ccc2c(c1)CCC2	-3.9%	x	x	x	-10.1%	6.9%	-5.4%	-13.0%
Cc1ccc(-c2nc(CSc3nc4ccccc4c(=O)n3CCO)cs2)cc1	-26.0%	5.7%	25.2%	-2.0%	2.9%	u	3.3%	-13.9%
COc1cccc(Nc2nc(-c3ccc(O)cc3)cs2)c1	-42.1%	-6.8%	-102.3%	-8.7%	-5.2%	5.7%	21.5%	-20.6%
O=C(N/N=C/c1ccc(Cl)c([N+](=O)[O-])c1)c1ccc2nc[nH]c2c1	-2.9%	4.6%	0.9%	-10.8%	-5.2%	-9.8%	20.0%	0.8%
O=C(NC1CCCC1)C(c1cccnc1)N(C(=O)c1ccco1)c1ccc(F)cc1 (stereo unspecified)	1.4%	x	6.8%	x	-7.2%	u	-20.8%[46.1 µM]	-0.6%
COc1cc(CNCc2ccc(C)cc2)cc(OC)c1OC	-0.4%	x	10.1%	x	-0.1%	x	x	-12.3%
CCCNC(=O)NCc1ccc(N2CCCC2=O)cc1	-0.6%	-9.4%	-2.2%	1.7%	-10.2%	-2.0%	2.3%	-12.5%
O=C(CN=C1NS(=O)(=O)c2ccccc21)OCC(=O)c1ccccc1	-0.5%	x	-2.1%	x	7.0%	-8.9%	5.6%[46.1 µM]	28.1%
Cc1cc(=O)oc2cc(OCC(=O)N3CC[C@@]4(O)CCCC[C@H]4C3)ccc12	-3.3%	x	7.0%	x	4.2%	x	x	-14.8%
Nc1cc(S(=O)(=O)O)cc([N+](=O)[O-])c1O	3.0%	x	x	x	-1.8%	-9.3%	1.1%[46.1 µM]	-6.6%
O=C(C[n+]1cccc(/C=N/O)c1)N1CCCc2ccccc21	-1.0%	x	x	x	17.0%	-1.2%	u	-3.4%
Cn1c(=O)[nH]c(=O)c2c1nc(CN1CCN(c3ccc(F)cc3)CC1)n2CCc1ccccc1	-10.1%	u	-0.8%	-0.5%	-3.1%	-10.8%	-14.6%	x
COc1ccc(/C=C2\SC(=O)N(CCNC(=O)Cc3coc4cc(OC)ccc34)C2=O)cc1	-6.6%	18.7%	15.8%	-5.2%	4.5%	-19.0%	12.9%	0.0%
O=C(CNc1cccc(S(=O)(=O)N2CCCC2)c1)Nc1ccc(F)c(F)c1	-0.8%	x	x	x	0.6%	u	u	-25.6%
COc1ccc(-n2nc(C(=O)Nc3cc(C)c(Cl)cc3OC)c3c4ccccc4n(C)c3c2=O)cc1	x	-5.0%	x	-0.6%	x	29.3%[46.1 µM]	0.7%[46.1 µM]	-7.3%
O=C(Cc1ccccc1)NNC(=O)C1CC=CCC1 (stereo unspecified)	1.8%	x	10.3%	x	8.9%	16.5%[46.1 µM]	2.6%[46.1 µM]	-0.2%

Hits appear at their usual frequency; 4.7% or so of the library scored in one or more.
